Biofilm kill mix – mixture kills Candida albicans biofilm cells; C. albicans biofilm persisters + clotrimazole, fluorescence viability; primary screen in compound mixtures of four per well; inhibition, % at 7.6 µM; hit rate 0.02% among 120,000;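 active = inhibition above 30.3% in the primary screen of four-compound pools, then above 30% when the compound was retested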;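 note: compounds exposed to preformed 24 h biofilms for 48 h; the number belongs to the whole pool; some results filed as inactive read as strong as hits; inactives centre near 12; 0% = biofilm with clotrimazole alone and 100% = kill control; retested singly at about 60 µM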
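Test system: C. albicans CAF4-2 wild-type biofilms; buffer or medium: RPMI/MOPS medium, pH 7.0; schedule: 24 h biofilm formation, then 48 h compound exposure, 37 °C; detection: Alamar Blue fluorescence; measure: percent inhibition of biofilm viability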
The depositor's hits bear a star.

#	molecule	Biofilm kill mix
1	COc1ccc(/C=C(\NC(=O)c2cccs2)C(=O)Nc2ccc(C)cc2)cc1OC	7
2	COc1ccc(NC(=O)c2ccc3c(c2)n(C)c(=O)n3C)cc1	18
3	O=C(O)Cn1cc(/C=C2/SC(=O)N(CC(=O)N3CCCCCC3)C2=O)c2ccccc21	13
4	COc1cccc(OC)c1C(=O)NC(=S)Nc1cc(-c2nc3ccccc3[nH]2)ccc1Cl	22
5	COc1ccc(NC(=O)CSc2nnnn2C2CCCC2)cc1	4
6	Cc1c(NC(=O)C(=O)/C=C(\O)c2ccc(Cl)cc2)c(=O)n(-c2ccccc2)n1C	13
7	O=C(Nc1cccc(S(=O)(=O)N2CCOCC2)c1)c1cn(-c2ccccc2)nc1-c1ccc(F)cc1	8
8	COc1cc([N+](=O)[O-])ccc1Nc1nc(C)cc(C)n1	13
9	CCOC(=O)N1CCN(C(=O)C(=O)NNC(=O)COc2ccc(Cl)cc2)CC1	10
10	COc1cc(-c2cc(C(=O)OCC(=O)Nc3ccc4c(c3)OCO4)c3ccccc3n2)cc(OC)c1OC	12
11	Cc1sc2nc(CSCC(=O)NC(C)(C)C)[nH]c(=O)c2c1C	9
12	CCC(=O)Nc1ccc2nc(SCC(=O)N3CCOCC3)sc2c1	12
13	CNCC(O)CN(c1ccccc1)c1ccccc1 (configuration not stated)	10
14	O=C(COc1cccc(Cl)c1)Nc1cc(S(=O)(=O)N2CCOCC2)ccc1N1CCOCC1	10
15	COc1cc2c(c3oc(-c4ccccc4)cc(=O)c13)C=CC(C)(C)O2	12
16	O=C(Nc1ccccc1-c1ccccc1)C1CCCCC1	13
17	CCN(CC)S(=O)(=O)c1ccc(N2CCCC2)c(NC(=O)c2ccncc2)c1	24
18	CNC(=O)NNC(=O)c1csc(-c2ccc(C(F)(F)F)cc2Cl)n1	1
19	COc1cccc(CC(=O)NNC(=O)c2c(-c3ccccc3)noc2C)c1	14
20	O=C(Cc1ccc(S(=O)(=O)N2CCOCC2)s1)Nc1ccc(N2CCOCC2)cc1	4
21	CCOC(=O)c1nn(-c2cccc(Cl)c2)c2nc(Nc3ccccc3)cc(=O)n12	10
22	CCC(=O)N1CCc2cc(S(=O)(=O)NC(Cc3ccccc3)C(=O)Nc3nccs3)ccc21 (configuration not stated)	18
23	CN1CCN(C(=O)/C=C\C(=O)O)CC1	19
24	C/C(=C\c1ccccc1)CN1CCC(C(=O)N2CCC(C)CC2)CC1	18
25	C#CCOCCOCCOCCNc1nc(N2CCOCC2)nc(N2CCN(C(=O)[C@H](Cc3ccc(O)cc3)n3cc([C@@H](N)C(C)CC)nn3)CC2)n1 (some centres not stated)	20
26	Cc1ccc2[nH]c(=O)c(CN(C(=O)c3cccs3)c3ccccc3)cc2c1	22
27	Cc1c(NC(=S)NC(=O)c2cc3ccccc3o2)c(=O)n(-c2ccccc2)n1C	11
28	CN(C)c1ccc(P(=O)(CC(=O)N/N=C/c2ccc(C#N)cc2)OCCCl)cc1 (configuration not stated)	12
29	CC1=NN(c2ccc([N+](=O)[O-])cc2)C(c2ccccc2)C1 (configuration not stated)	2
30	CN1C/C(=N\S(=O)(=O)c2ccccc2)N(C)C1=O	6
31	Cc1ccc(C)c2nc(Cl)c(C3NC(=O)c4ccccc4N3)cc12 (configuration not stated)	10
32	CCOc1[nH]n(-c2ccccc2)c(=O)c1C=NCc1ccncc1	12
33	CCN(CC)C(=O)/C(=C\c1cccc([N+](=O)[O-])c1)NC(=O)c1ccco1	0
34	O=C(Oc1ccc(O)cc1)C12CC3CC(CC(C3)C1)C2	3
35	COC(=O)C(NC(=O)CNS(=O)(=O)c1ccc(Br)cc1)c1ccccc1 (configuration not stated)	31
36	COC(=O)C1=C(C)NC(=O)NC1c1ccco1 (configuration not stated)	2
37	OCCC1CN(Cc2ccc3nsnc3c2)CCN1CCc1ccccc1 (configuration not stated)	17
38	Cc1ccc2nsnc2c1S(=O)(=O)N1CCCC1C(=O)O (configuration not stated)	23
39	O=C(Cc1ccc2c(c1)OCCO2)N1CCN(S(=O)(=O)c2ccccc2C(F)(F)F)CC1	13
40	O=C(O)c1cc([N+](=O)[O-])ccc1NCCO	4
41	O=C(N/N=C/c1coc2ccccc2c1=O)c1ccccc1	8
42	CC(=O)Nc1ccc(C=C(C(C)=O)C(C)=O)cc1	22
43	Nc1no[n+]([O-])c1-c1ccccc1	6
44	O=C(COC(=O)/C=C/c1ccccc1)NCc1ccc(Cl)cc1	8
45	O=C(c1ccc(=O)[nH]n1)N1CCc2ccccc2C1	0
46	CCN(CC(=O)Nc1cc(OC)ccc1OC)Cc1nc2ccccc2c(=O)[nH]1	14
47	CCNc1nc(NCC)n2c(SCC(=O)Nc3ccccc3[N+](=O)[O-])nnc2n1	4
48	COc1ccc(C(CC(=O)Nc2ccc(C)cc2)NC(=O)C(F)(F)F)cc1 (configuration not stated)	23
49	CCN(CC)CCCN(Cc1cc2cc3c(cc2[nH]c1=O)OCO3)C(=S)Nc1ccccc1	22
50	COc1ccc(-c2nnc3ccc(SCC(=O)Nc4nccs4)nn23)cc1OC	3
51	O=C(NCc1cccs1)c1cc(-c2ccccc2)nc2ccccc12	9
52	CCOc1ccc(S(=O)(=O)N(C)c2ccc(OCC(=O)NCC3CCCO3)cc2)cc1 (configuration not stated)	14
53	O=c1[nH]c(SCc2nc3ccccc3c(=O)n2-c2ccccc2C(F)(F)F)nc2ccccc12	5
54	CCC(C)c1ccc(NC(=S)Nc2ccc(OC)cc2C)cc1 (configuration not stated)	-1
55	CC(C)(C)C(=O)Nc1ccc(C(=O)NNC(=O)c2ccccc2)cc1	6
56	O=C1N/C(=C/c2ccc(N3CCCC3)cc2)C(=O)N1c1ccccc1	-6
57	COC(=O)c1sc2nc(CN3CCN(c4cccc(C(F)(F)F)c4)CC3)[nH]c(=O)c2c1C	16
58	O=S(=O)(Cc1ccccc1)N1CCC(N2CCN(c3ccccc3)CC2)CC1	7
59	CCOC(=O)CN1N=C(c2ccc(Cl)s2)CSC1=O	9
60	CCCn1c(SCC(=O)Nc2ccc(Cl)cc2)n[nH]c1=O	7

Next results:
#	molecule	Biofilm kill mix
61	COC(=O)c1ccccc1SC1CC(=O)N(c2ccccc2)C1=O (configuration not stated)	0
62	Cc1c([N+](=O)[O-])cc(C(=O)Oc2cccc(C(=S)N3CCOCC3)c2)cc1[N+](=O)[O-]	16
63	Cc1ccccc1/C=N/Nc1nc2ccccc2c(=O)n1O	23
64	CNC(=O)[C@H](C)[C@@H]1C[C@@]1(C)[C@@H](NC(=O)OCc1ccccc1)c1ccccc1	12
65	CC(OC(=O)CC(NC(=O)c1ccccc1Cl)c1ccccc1)C(=O)Nc1cccc(Cl)c1Cl (configuration not stated)	6
66	CCOC(=O)Cn1c(=NC(=O)CC)sc2c(C)cc(C)cc21	25
67	O=C(O)C(Cc1c[nH]c2ccccc12)NS(=O)(=O)c1ccc(Cl)cc1 (configuration not stated)	-3
68	O=C1CC[C@@H](CN(Cc2ccccn2)Cc2nc(Cc3ccccc3)no2)N1	3
69	CCCOc1cc(C)c(S(=O)(=O)NC2CC(C)(C)NC(C)(C)C2)cc1C	15
70	Cc1cccc(N)c1-c1c(C)cccc1N	29
71	O=C(COc1ccccc1)NCC(=O)Nc1cccc(S(=O)(=O)NC2=NCCC2)c1	1
72	CC(C)(C)C(=O)Nc1ccc(C(=O)N/N=C/c2ccccc2OC(=O)c2ccc(Cl)cc2)cc1	11
73	CCCn1c(=O)c2[nH]cnc2n(-c2ccc(Cl)cc2)c1=O	17
74	O=C(COC(=O)/C=C/c1ccc(S(=O)(=O)N2CCOCC2)cc1)NC1CCCCCCC1	6
75	COc1ccc(S(=O)(=O)NNC(=O)C2CC(c3cccnc3)=NO2)cc1 (configuration not stated)	-5

3 entries from above, arranged by number of heavy atoms, high to low.
#	molecule	Biofilm kill mix
72	CC(C)(C)C(=O)Nc1ccc(C(=O)N/N=C/c2ccccc2OC(=O)c2ccc(Cl)cc2)cc1	11
62	Cc1c([N+](=O)[O-])cc(C(=O)Oc2cccc(C(=S)N3CCOCC3)c2)cc1[N+](=O)[O-]	16
68	O=C1CC[C@@H](CN(Cc2ccccn2)Cc2nc(Cc3ccccc3)no2)N1	3

Next entries
#	molecule	Biofilm kill mix
76	N#C/C(=C(/O)CO/N=C/c1ccccc1Cl)c1nc2ccccc2[nH]1	12
77	COc1ccc([C@@H]2C[C@H](c3ccccc3)Oc3cc(OC)c(OC)c(OC)c32)cc1	1
78	OCC1(Cc2ccc(Cl)cc2)CCN(Cc2ccc(Oc3ncccn3)cc2)CC1	16
79	O=C1N=C(N2CCCC2)S/C1=C\c1ccccc1	16
80	Oc1cccc(/C=N/N(Cc2ccccc2)c2ccccc2)c1	8
81	CC1CCCC(C)N1C(=O)COC(=O)C(Cc1ccccc1)NC(=O)c1cccs1 (configuration not stated)	5
82	N#C/C(=C\c1ccc(Cl)c([N+](=O)[O-])c1)c1ccccn1	10
83	COc1ccc(/C=C(\C#N)C(=O)Nc2cc(S(=O)(=O)N3CCOCC3)ccc2N2CCCC2)cc1	10
84	O=C(Nc1cccc(F)c1)NC1CCN(Cc2ccccc2)CC1	7
85	CCN(C(=O)CN1c2ccccc2CC1C)c1c(N)n(Cc2ccccc2)c(=O)[nH]c1=O (configuration not stated)	11
86	Cc1ccc(-n2ncc3c(SCc4cccnc4)ncnc32)c(C)c1	10
87	C=CCNC(=S)NNC(=O)c1ccc(OCCCC)cc1	10
88	Cn1nc([N+](=O)[O-])nc1N1CCOCC1	9
89	CCOCCn1c(=NC(=O)c2cc3ccccc3oc2=O)sc2cc(S(N)(=O)=O)ccc21	9
90	Cc1cc(NC(=O)c2ccc(C#N)cc2)on1	16

Numbers 75 to 90 from above:
#	molecule	Biofilm kill mix
75	COc1ccc(S(=O)(=O)NNC(=O)C2CC(c3cccnc3)=NO2)cc1 (configuration not stated)	-5
76	N#C/C(=C(/O)CO/N=C/c1ccccc1Cl)c1nc2ccccc2[nH]1	12
77	COc1ccc([C@@H]2C[C@H](c3ccccc3)Oc3cc(OC)c(OC)c(OC)c32)cc1	1
78	OCC1(Cc2ccc(Cl)cc2)CCN(Cc2ccc(Oc3ncccn3)cc2)CC1	16
79	O=C1N=C(N2CCCC2)S/C1=C\c1ccccc1	16
80	Oc1cccc(/C=N/N(Cc2ccccc2)c2ccccc2)c1	8
81	CC1CCCC(C)N1C(=O)COC(=O)C(Cc1ccccc1)NC(=O)c1cccs1 (configuration not stated)	5
82	N#C/C(=C\c1ccc(Cl)c([N+](=O)[O-])c1)c1ccccn1	10
83	COc1ccc(/C=C(\C#N)C(=O)Nc2cc(S(=O)(=O)N3CCOCC3)ccc2N2CCCC2)cc1	10
84	O=C(Nc1cccc(F)c1)NC1CCN(Cc2ccccc2)CC1	7
85	CCN(C(=O)CN1c2ccccc2CC1C)c1c(N)n(Cc2ccccc2)c(=O)[nH]c1=O (configuration not stated)	11
86	Cc1ccc(-n2ncc3c(SCc4cccnc4)ncnc32)c(C)c1	10
87	C=CCNC(=S)NNC(=O)c1ccc(OCCCC)cc1	10
88	Cn1nc([N+](=O)[O-])nc1N1CCOCC1	9
89	CCOCCn1c(=NC(=O)c2cc3ccccc3oc2=O)sc2cc(S(N)(=O)=O)ccc21	9
90	Cc1cc(NC(=O)c2ccc(C#N)cc2)on1	16

New compounds follow.
#	molecule	Biofilm kill mix
91	Cc1cc(C)c2[nH]c(O)c(N=NC(=S)NCC3CCCO3)c2c1 (configuration not stated)	-12
92	CCOC(=O)CNc1nc(Cl)nc(Nc2ccccc2)n1	11
93	CCOc1ccccc1N1CCN(C(=O)c2ccc3[nH]c4c(c3c2)CCCC4)CC1	-11
94	CSC(=S)N/N=C/c1ccc(N(C)C)cc1	9
95	CC1(c2ccc3ccccc3c2)NC(=O)N(CC(=O)NCc2cccs2)C1=O (configuration not stated)	7
96	O=C(NCC1CCCO1)C(=O)c1c[nH]c2ccccc12 (configuration not stated)	20
97	S=C(Nc1ccc(Cl)cc1)c1sc(N2CCCCC2)nc1N1CCOCC1	9
98	O=C(O)Cn1cnc2sc3c(c2c1=O)CCCC3	10
99	Clc1ccc(-c2n[nH]c3c2Cc2ccccc2-3)cc1Cl	16
100	COC(=O)c1cnc(N2CCCN(S(=O)(=O)c3ccc(C(F)(F)F)cc3)CC2)nc1C(F)(F)F	32
101	CC1=NN(c2ccccc2)C(=O)C1/C=C1\NC(=S)NC1=O (configuration not stated)	3
102	O=C(O)c1cccc(Cn2c(Cl)c(/C=N/NC(=O)c3cc4ccccc4cc3O)sc2=O)c1	19
103	CCOc1ccc(C(=O)NCc2ccccc2)cc1Br	12
104	CCC(C(=O)OCC(=O)Nc1cc(Cl)cc(Cl)c1)c1ccccc1 (configuration not stated)	15
105	C=CCN(c1ccccc1)S(=O)(=O)c1cc(C(=O)NC2=NCCS2)ccc1Cl	16
106	COC(=O)CN(c1ccc(OCc2ccccc2)cc1)S(C)(=O)=O	21
107	COc1ccc(O)c(C(=O)CC(=O)c2ccccc2C)c1	9
108	OC1(c2ccc(Cl)c(Cl)c2)C[n+]2ccccc2N1Cc1ccccc1 (configuration not stated)	13
109	CC[C@H](C)[C@H](NC(=O)OCc1ccccc1)C(=O)Nc1ccc(NC(C)=O)cc1	14
110	CN(C)Cc1cc2ccccc2c2c1COC2	24
111	COc1ccc(C(=O)NCc2ccncc2)cc1OC	-1
112	O=c1c2ccccc2ncn1-c1ccc(Cl)cc1[N+](=O)[O-]	31
113	Fc1ccc(-c2cc(-c3nnc4n3CCCCC4)c3ccccc3n2)cc1	25
114	O=C(O)CNC(=S)N(Cc1ccccc1)Cc1ccccc1F	12
115	CC1(C(=O)OCC(=O)Nc2ccc3ccccc3c2)CC1(Cl)Cl (configuration not stated)	14
116	Cc1nn(-c2ccccc2)c(Cl)c1/C=N/Nc1ccc(Cl)c(C(=O)O)c1	12
117	COc1ccc(CCN(Cc2cc3cc(C)ccc3[nH]c2=O)C(C)=O)cc1OC	22
118	Cn1ncc(N=Cc2c(O)ccc3ccccc23)c1C(=O)Nc1cccc(Cl)c1	12
119	CCCC(=O)Nc1cccc(NC(=O)c2cccc([N+](=O)[O-])c2C)c1	3
120	Cc1ccc(-c2cn3cc([N+](=O)[O-])ccc3n2)cc1	12
121	CC(=O)c1sc(NC(=O)c2ccc(Cl)cc2)nc1C	18

Not all compounds are listed; rates above refer to the full screens.
